Assay outcomes as filed in PubChem.
gsp ag: agonists of gsp mutant (McCune-Albright syndrome). gsp mutant cells, cAMP HTRF, 30 min; control for the full effect not named in the record. Potency, µM (series often up to 76.9 µM), for inactives: at the top dose activation (cAMP increase), actives largely listed as activators. 0.13% of 340,000 active. AID 624287; active = well fitted activation curve with a large enough effect; inconclusive = small, poorly fitted or top-dose-only effect, or another doubt; inactive = no such curve, though single readings can be large or run the other way; cell line not stated here;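 further: phosphodiesterase inhibitor Ro 20-1724 added with compounds to block cAMP breakdown; potency means the concentration at half of the fitted maximal effect; nearly all actives have a fitted effect of over 60% in size; about a fifth of the inactives were tested at one dose only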
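Cells in DMEM/10% FBS with G418 were pretreated with compounds in DMSO plus […] (300 uM stock) for 30 min at 37C. cAMP was measured by HTRF (cAMP-d2 plus anti-cAMP antibody-K) after 30 min at room temperature.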
Menin MLL FP FL: inhibitors of human menin-MLL interaction, wild-type MLL peptide | Fluorescence polarization, fluorescein-MLL peptide displacement from menin | FP activity change, % at 61.4 µM | 290,000 tested, under 10 active | AID 1766; inconclusive = falling polarisation curve, or a change in total fluorescence; inactive = total fluorescence flat and polarisation flat or rising; no compound was filed as active; the % refers to the polarisation; negative = inhibition;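 further: % of control where 0% means no effect; inhibitors lower the polarisation; unlabelled MLL peptide was the positive control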
Sfp PPTase inh: Sfp phosphopantetheinyl transferase inhibition. 3.5% of 310,000 active. Potency, µM, for inactives: max response, negative = inhibition, usual class: inhibitors. Biochemical Sfp PPTase activity, qHTS. AID 1490. Q9F4F7; active means well fitted inhibition curve with a large enough effect; inconclusive means small, poorly fitted or top-dose-only effect, or another doubt; inactive means no such curve, though single readings can be large or run the other way;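 further: the enzyme is Sfp with the accession as filed and its product quenches rhodamine fluorescence; potency means the concentration at half of the fitted maximal effect; 0% = enzyme reaction without inhibitor and -100% = no enzyme wells; top concentration of the series not given in the record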
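Fluorescence-quenching assay with 15 nM Sfp, 5 uM rhodamine-CoA and 12.5 uM BHQ-2-labelled ybbR peptide in pH 7.6 Hepes/MgCl2 buffer. Enzyme was pre-incubated with compound for 15 min at room temperature. Rate was taken from the 30-min fluorescence change (525/598 nm).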
ClpP mod: qHTS Assay for Activators of ClpP. ATP-dependent Clp protease proteolytic subunit (Bacillus subtilis (strain 168)), P80244. 1.9% of 340,000 active. purified B. subtilis ClpP, FRET peptide cleavage, 20 min. Potency, µM (series often up to 57.5 µM), inactives show at the highest dose activity change, negative = active; active = well fitted falling curve with a large enough effect; inconclusive = small, poorly fitted or top-dose-only effect; inactive = no such curve, though single readings can be large or run the other way; further: potency means the concentration at half of the fitted maximal effect; the source files actives as falling curves though it sought activators and does not explain the sign; nearly all actives have a fitted effect of over 65% in size; many hits overshoot -100%
Target sequence (P80244 whole entry, looked up): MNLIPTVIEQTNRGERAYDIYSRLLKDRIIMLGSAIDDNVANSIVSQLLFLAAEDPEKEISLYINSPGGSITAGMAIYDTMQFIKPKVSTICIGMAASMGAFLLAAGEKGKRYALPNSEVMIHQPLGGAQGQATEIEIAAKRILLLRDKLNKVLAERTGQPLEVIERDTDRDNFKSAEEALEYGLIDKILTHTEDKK
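ClpP 10 microg/mL final, pH 8 Tris/KCl buffer with BSA, glycerol, Tween-20; compound pinned in; FRET-FV substrate; RT 20 min; Ex320/Em430; ΔFRET vs ADEP 5.8 microM, DMSO, no enzyme.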
TRPV1 PAM: potentiators of human vanilloid receptor 1 (TRPV1); potentiation, % at 8.33 µM; AID 540277; Q8NER1; TRPV1-expressing cells, Fluo-8 calcium influx, capsaicin EC20 potentiation; host cell line not named in the record; control for the full effect not named in the record; 0.02% of 320,000 active; active means potentiation above 80%; inconclusive means 30% to 80%; inactive means below 30%; further: 0% is about no effect
Target sequence (Q8NER1 whole entry, looked up): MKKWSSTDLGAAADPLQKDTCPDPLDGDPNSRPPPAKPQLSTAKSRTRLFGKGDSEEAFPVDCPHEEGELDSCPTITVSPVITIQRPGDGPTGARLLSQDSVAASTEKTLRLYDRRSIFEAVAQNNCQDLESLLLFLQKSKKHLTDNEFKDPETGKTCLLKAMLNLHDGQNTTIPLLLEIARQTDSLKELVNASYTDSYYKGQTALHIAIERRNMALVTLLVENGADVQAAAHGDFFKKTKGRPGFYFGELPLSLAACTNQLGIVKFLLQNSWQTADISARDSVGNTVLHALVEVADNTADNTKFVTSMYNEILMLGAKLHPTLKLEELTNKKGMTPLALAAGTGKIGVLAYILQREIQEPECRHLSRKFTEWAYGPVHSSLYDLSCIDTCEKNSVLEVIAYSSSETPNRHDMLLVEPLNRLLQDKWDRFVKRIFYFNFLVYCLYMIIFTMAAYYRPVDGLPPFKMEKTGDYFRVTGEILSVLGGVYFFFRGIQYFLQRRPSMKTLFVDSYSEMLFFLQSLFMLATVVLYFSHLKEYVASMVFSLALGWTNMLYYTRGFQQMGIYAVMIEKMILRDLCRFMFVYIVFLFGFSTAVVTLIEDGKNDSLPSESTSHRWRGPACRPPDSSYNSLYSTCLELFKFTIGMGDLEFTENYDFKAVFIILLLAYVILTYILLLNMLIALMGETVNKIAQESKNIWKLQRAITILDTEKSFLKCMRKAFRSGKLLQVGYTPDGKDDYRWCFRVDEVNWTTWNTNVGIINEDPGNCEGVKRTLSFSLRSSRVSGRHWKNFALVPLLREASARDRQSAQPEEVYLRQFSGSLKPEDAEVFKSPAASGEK
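Fluo-8 calcium influx in TRPV1-expressing cells, kinetic read (ex 480/em 520 nm). Compound added and read 3 min for agonist activity, followed by capsaicin at EC20 final and 2 min further read for enhancement.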
gsp antagonist: antagonizes gsp, the McCune-Albright syndrome mutation | 0.4% of 340,000 active | Potency, µM (highest dose often 76.9 µM), for the others: top-dose activity change, negative = inhibition, hits mostly inhibitors | gsp-mutant cells, cAMP HTRF, 30 min; control for the full effect not named in the record; active = falling curve of any shape with a large fitted effect; inconclusive = falling curve, mostly with a smaller effect; inactive = flat or rising curve; cell line not stated here;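 further: intracellular cAMP measured with PDE inhibitor Ro 20-1724 present during compound exposure; potency means the concentration at half of the fitted maximal effect; on the % scale 0 is the no-effect control and ±100 the full control effect; nearly all actives have a fitted effect of over 65% in size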
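Cells in G418 medium, seeded 16-24 h, 37C; buffer exchange to DPBS + 1 mM CaCl2, 0.5 mM MgCl2, 0.05% BSA; cpds in DMSO + […] (300 uM stock), 30 min 37C; HTRF cAMP detection.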
TRPML1 inh: blocks the human TRPML1 channel; TRPML1-inducible cells, Ca2+ dye fluorescence, FDSS; active compounds read low; inhibition of EC80 agonist-evoked calcium signal; activity change, negative = inhibition, % (concentration not given with the values); 0.02% of 390,000 active; AID 624415; in the data active means activity change below about -50%; inconclusive means about -30% to -50%; inactive means above about -30%;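 further: stimulus is agonist 54-4 at its EC80 concentration; on the % scale 0 is the no-effect control and ±100 the full control effect; the text of the record puts the active cut at -80%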
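TRPML1-DL cells, Tet-induced overnight (~16 h, 37 °C) at 1,500 cells/well, were loaded with Ca8 no-wash dye plus quencher for 45-90 min at room temperature. Compounds were pinned during FDSS kinetic reading; agonist 54-4 at EC80 (4 uM final) then added.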
The depositor's hits bear a star; ? = inconclusive; / = not tested or not shown; [ ] = remark or other dose.

1) c1ccc(CNc2c3c(nc4ncnn24)CCC3)cc1
2) CCc1cc(=O)oc2c(C)c(OCC(=O)N3CCC[C@@H]3C(=O)O)ccc12
3) O=C1CN(C(=O)c2ccccc2C(=O)O)c2ccccc2N1
4) c1n[nH]c(NC2=NCCC2)n1
5) CCn1cc(C(=O)NCc2ccccc2Cl)cn1
6) COc1ccc(OC(C)C(=O)N2CCCc3ccccc32)cc1 (stereo not given)
assay / compound,1,2,3,4,5,6
Menin MLL FP FL,0.9,-8.3,?,0.6,1.8,-8.3
TRPML1 inh,5,/,24,-1,-15,11
TRPV1 PAM,?,-3,-16,-2,?,-2
gsp antagonist,7%,3%,9%,23%,10%,2%
ClpP mod,/,4.7%,-1.7%,1.9%,-27%,/
gsp ag,-12%[15.4 µM],/,25%[15.4 µM],0%,-22%[15.4 µM],2%
Sfp PPTase inh,-26%,0%,28%,45µM*,-10%,1%

Molecules above containing four or more nitrogen atoms (2):
1) c1ccc(CNc2c3c(nc4ncnn24)CCC3)cc1
4) c1n[nH]c(NC2=NCCC2)n1
assay / compound,1,4
Menin MLL FP FL,0.9,0.6
TRPML1 inh,5,-1
TRPV1 PAM,?,-2
gsp antagonist,7%,23%
ClpP mod,/,1.9%
gsp ag,-12%[15.4 µM],0%
Sfp PPTase inh,-26%,45µM*

(more compounds)
7) CC(OC(=O)c1ccc(Cl)c(S(=O)(=O)Nc2ccc(F)cc2)c1)C(=O)NC(N)=O (stereo not given)
8) CC(OC(=O)COc1ccccc1[N+](=O)[O-])C(=O)Nc1ccc(N2CCOCC2)cc1 (stereo not given)
9) O=C(c1cc(F)ccc1F)C1CCCN(C(=O)c2cccs2)C1 (stereo not given)
10) COc1ccc(CSc2nc(C)cc(=O)[nH]2)cc1Br
11) COC(=O)CSc1nc(SCc2ccccc2Cl)nc2c1CCCC2
12) CCCN1CCN(C(=O)c2ccc(CS(=O)c3ccc(Cl)cc3)o2)CC1 (stereo not given)
assay / compound,7,8,9,10,11,12
Menin MLL FP FL,4.2,-2.7,0.7,3.2,3.4,/
TRPML1 inh,4,19,4,7,-10,-10
TRPV1 PAM,-9,-5,-3,0,1,5
gsp antagonist,-4%,-5%,-1%,?,-26%,14%
ClpP mod,-1.0%,0.2%,/,0.1%,-1.7%,0.7%
gsp ag,-50%[inhibitor],5%,-14%,5%,-23%,?
Sfp PPTase inh,15%,1%,12%,-5%,6%,21%

13) CCN(C(=O)c1ccc(Cl)cc1[N+](=O)[O-])c1ccccc1C
14) NC(=O)C1CCN(C(c2ccccc2Cl)c2nnnn2CC2CCCO2)CC1 (stereo not given)
15) O=C(CNC(=O)N1CC(=O)Nc2ccccc21)NCCc1cccc(F)c1
16) O=c1ccn([C@@H]2O[C@H](CNS(=O)(=O)c3cc4ccccc4s3)[C@@H](O)[C@H]2O)c(=O)[nH]1
17) O=C(NCCNC(=O)c1cc(Cl)ccc1Cl)c1ccccn1
18) CCOc1ccc(C(=O)Nc2cccc3ncccc23)cc1Br
assay / compound,13,14,15,16,17,18
Menin MLL FP FL,-0.8,1.1,-1.1,/,-1.9,1.3
TRPML1 inh,14,16,15,7,-18,13
TRPV1 PAM,1,14,-2,/,-5,-17
gsp antagonist,-3%,5%,11%,5%,4%,3%
ClpP mod,/,1.6%,-2.5%,-2.0%,/,8.5%
gsp ag,-80%[inhibitor],6%,20%,/,?,-10%
Sfp PPTase inh,13%,16%,7%,/,7%,2%

19) CCn1nc(NC(=O)c2ccncc2)c2cc3ccccc3nc21
20) COc1ccc(CCNC(=O)CCC(=O)n2ncc3ccc(Cl)cc32)cc1OC
21) C=CC[C@H](CC(=O)NCCO)C(=O)NC[C@@H](OC(=O)[C@H](CC=C)CC(=O)OC(C)(C)C)c1ccccc1
22) COC(=O)c1ccc(N2C(=O)c3cc(N4CCOCC4)c([N+](=O)[O-])cc3C2=O)cc1
23) Cc1c(Cl)cccc1NC(=S)NC1CCN(C(C)C)CC1
24) O=C(CN(C(=O)Cn1nnc(-c2ccccc2F)n1)c1cnc2ccccc2c1)NCC1CCCO1 (stereo not given)
assay / compound,19,20,21,22,23,24
Menin MLL FP FL,-2.8,0.3,/,2.3,-3.7,-1.7
TRPML1 inh,-13,5,0,-10,7,7
TRPV1 PAM,-22,11,/,-6,0,16
gsp antagonist,-8%,4%,1%,-2%,13%,-1%
ClpP mod,-0.8%,1.4%,2.1%,-1.5%,0.9%,/
gsp ag,-21%,23%,/,-59%[inhibitor],-1%,1%[15.4 µM]
Sfp PPTase inh,3%,4%,/,3%,5%,17%

Entries shown so far that have an NH in an aromatic ring (3):
4) c1n[nH]c(NC2=NCCC2)n1
10) COc1ccc(CSc2nc(C)cc(=O)[nH]2)cc1Br
16) O=c1ccn([C@@H]2O[C@H](CNS(=O)(=O)c3cc4ccccc4s3)[C@@H](O)[C@H]2O)c(=O)[nH]1
assay / compound,4,10,16
Menin MLL FP FL,0.6,3.2,/
TRPML1 inh,-1,7,7
TRPV1 PAM,-2,0,/
gsp antagonist,23%,?,5%
ClpP mod,1.9%,0.1%,-2.0%
gsp ag,0%,5%,/
Sfp PPTase inh,45µM*,-5%,/

Other records
25) CN(c1ccccc1C(=O)O)S(=O)(=O)c1ccc2[nH]c(=O)[nH]c2c1
26) COC(=O)c1cc(-c2ccc(NC(C)=O)cc2)nc2ccccc12
27) Cn1c(=O)[nH]c(=O)c2c1nc(N/N=C/C(Br)=C/c1ccccc1)n2CCO
28) N#CC1=C(Nc2ccccc2Cl)SC(c2ccccc2O)NC1=O (stereo not given)
29) O=C(Nc1ccc(F)cc1)C(c1ccccc1)N1CCN(CC(=O)N2CCCC2)CC1 (stereo not given)
30) CC(C)N1CCC(N2CCN(CCCc3ccccc3)CC2CCO)CC1 (stereo not given)
assay / compound,25,26,27,28,29,30
Menin MLL FP FL,3.1,-0.3,2.5,-21,/,3.2
TRPML1 inh,-1,-7,-5,8,-6,-11
TRPV1 PAM,0,-51,?,19,?,11
gsp antagonist,8%,-13%,-5%,2%,9%,1%
ClpP mod,0.4%,/,/,2.3%,0.7%,/
gsp ag,8%,?,-56%,16%,8%,-4%[15.4 µM]
Sfp PPTase inh,21%,9%,56µM*,13µM*,/,-1%

Three of the compounds above, in markdown.
| entry | canonical_smiles | Menin MLL FP FL | TRPML1 inh | TRPV1 PAM | gsp antagonist | ClpP mod | gsp ag | Sfp PPTase inh |
| --- | --- | --- | --- | --- | --- | --- | --- | --- |
| 27 | Cn1c(=O)[nH]c(=O)c2c1nc(N/N=C/C(Br)=C/c1ccccc1)n2CCO | 2.5 | -5 | ? | -5% | / | -56% | 56µM* |
| 28 | N#CC1=C(Nc2ccccc2Cl)SC(c2ccccc2O)NC1=O (stereo not given) | -21 | 8 | 19 | 2% | 2.3% | 16% | 13µM* |
| 29 | O=C(Nc1ccc(F)cc1)C(c1ccccc1)N1CCN(CC(=O)N2CCCC2)CC1 (stereo not given) | / | -6 | ? | 9% | 0.7% | 8% | / |

The list continues:
31) COC(=O)c1nn(-c2ccccc2)c(Sc2ccccc2)c1/C=N/O
32) CCOC(=O)C1(Cc2cccc(F)c2)CCN(C(=O)c2ccoc2C)CC1
33) O=C(N/N=C/c1cccc(C(F)(F)F)c1)c1ccc(O)cc1
34) O=C(NCC1CCCO1)C1CCN(c2ccc(S(=O)(=O)N3CCCC3)cc2)CC1 (stereo not given)
35) CC1CCN(CCOCCOc2ccccc2-c2ccccc2)CC1
36) COc1ccc(-c2cccc(NC(=O)c3ccc4c(c3)OCO4)c2)nn1
assay / compound,31,32,33,34,35,36
Menin MLL FP FL,1.1,5.1,-1.2,-1.1,7.7,/
TRPML1 inh,8,-6,6,-3,11,-15
TRPV1 PAM,?,-3,-10,-20,6,-5
gsp antagonist,0%,-4%,/,-2%,22%,1%
ClpP mod,1.3%,/,/,0.1%,1.2%,0.0%
gsp ag,18%,3%,2%[15.4 µM],-1%,2%,21%[15.4 µM]
Sfp PPTase inh,21%,7%,12%,7%,-14%,/

37) CCN(CC)c1ccc(-c2nn3c(-c4cccnc4)nnc3s2)cc1
38) COc1ccc(O)c(C(=O)c2cnn(C(=O)c3ccc(C)cc3)c2)c1
39) CN(C)c1cccc(N=C2C=C(N3CCOCC3)CC(C)(C)C2)c1
40) COc1cc(C2Nc3ccccc3C(=O)N2c2ccc3c(c2)OCCO3)ccc1OCC(C)C (stereo not given)
41) CC1(C)CC(=O)c2c(-c3cccs3)n[nH]c2C1
42) Cc1ccc(-c2nc3ccc(C(=O)O)cc3nc2-c2ccc(C)cc2)cc1
assay / compound,37,38,39,40,41,42
Menin MLL FP FL,3.8,/,4.7,4.9,-0.6,2.2
TRPML1 inh,6,-4,2,11,7,26
TRPV1 PAM,8,-12,-3,?,-20,3
gsp antagonist,-1%,13%,-8%,-12%,-1%,?
ClpP mod,-25%,9.6%,-1.5%,?,25µM*,?
gsp ag,?,-3%,-2%,3%,?,19%
Sfp PPTase inh,?,/,24%,4%,-3%,5%

43) CCOC(=O)c1cnc2c(c(C)nn2C)c1Oc1ccccc1F
44) CCCN(CCC)CCCNC(=O)c1cn(C)c2ccc(S(=O)(=O)N(C)C3CCCCC3)cc2c1=O
45) Clc1nc2nc3n(c2nc1Cl)CCC3
46) O=C(O)c1ccc(-c2ccc(/C=N/Nc3ccc([N+](=O)[O-])cc3)o2)cc1
47) O=C(Cn1c(=O)cnc2ccccc21)NNC(=O)c1ccccc1Cl
48) CN(c1ccccc1)S(=O)(=O)c1cccc(NC(=O)CN2CCc3ccccc3C2)c1
49) COc1ccc(C2CC(=O)Oc3cc(O)ccc32)cc1 (stereo not given)
assay / compound,43,44,45,46,47,48,49
Menin MLL FP FL,0.6,1.2,5.6,?,/,9.2,-1.8[94.6 µM]
TRPML1 inh,1,-6,1,/,-2,-3,-12
TRPV1 PAM,-3,8,-8,-6,0,10,/
gsp antagonist,-8%,12%,4%,?,6%,-4%,-7%
ClpP mod,0.9%,1.1%,?,3.5%,0.7%,/,1.0%
gsp ag,-29%,-27%,?,13%,28%,-2%[15.4 µM],/
Sfp PPTase inh,10%,9%,5%,?,/,-1%,6%
